ugtP null kill = compounds lethal to S. aureus RN4220 ugtP deletion mutant | OD600 growth, 16 h; some inactives read as strong as hits | growth inhibition, % (concentration not given with the values) | actives 0.54% (n = 330,000) | AID 1259309;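 active = z-score under -3 and OD600 up to 0.15 on both plates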;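 note: plate controls were untreated wells for no effect and antibiotic for full effect; wells of about 80 µL received 100 nL stock; the first replicate is given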
Mtb hypoxia rep = Mtb hypoxia fluorescent reporter inhibition; M. tuberculosis hypoxia-regulated fluorescent reporter, fluorescence; fluorescence inhibition, % (test concentration not listed); actives 0.1% (n = 300,000); AID 1159583;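 active = 35 to 45% if threefold the growth effect, above 45% if 1.5-fold the growth effect; inactive = the rest, general growth blockers included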;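 note: wells of about 50 µL received 100 nL stock; 0% = vehicle wells and 100% = reference inhibitor wells; whole bacteria with a GFP reporter of the hypoxia response; strong numbers were not always called active; many hits fall short of the cut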
PrP 5UTR inh = inhibition of PrP 5' UTR reporter expression | cell-based PrP 5' UTR mRNA reporter, plate reader | inhibition, % (no concentration beside the values) | actives 0.35% (n = 340,000) | AID 488862;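 active = every replicate at 50% or more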;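 note: 0 = median of the neutral control wells; tested in H4 reporter cells; numbers are from one replicate; inactives centre near -14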
Bead autofluor = compound fluorescence in toxin protease inhibitor counterscreen. compound autofluorescence counterscreen, microsphere flow cytometry; hits give high values. fluorescence intensity (concentration not given with the values). actives 3.1% (n = 360,000). AID 624483;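 active = at least 3 SD above the mean of all compounds, about 16000 in these data; inconclusive = too few beads counted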;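 note: 100 nL of 1 mM stock went into each well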
RN4220 kill = kills Staphylococcus aureus RN4220; S. aureus RN4220 growth, OD600, 16 h; inhibition, % (no concentration beside the values); actives 0.33% (n = 330,000); AID 1259311;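 active = z-score of -3 or lower and OD600 up to 0.18 on both plates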;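 note: plate controls were untreated cells for no effect and reference antibiotic for full effect; stock transfer was 100 nL into about 80 µL; one replicate is shown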
BJeLR viability = kills HRASV12-expressing BJeLR cells. actives 0.17% (n = 300,000). BJeLR (HRASV12) viability, CellTiter-Glo ATP luminescence, 48 h; reference of the scale not given here. inhibition, % (test concentration not listed);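 active = replicate mean above 50%; inconclusive = above 50% but judged a plate artefact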;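 note: 50 nL library stock added to about 25 µL; numbers are from one replicate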
Mtb hypoxia rep growth = recorded beside Mtb hypoxia rep, whose call it bears; growth inhibition, %; measured here: M. tuberculosis growth (absorbance);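 0% = vehicle and 100% = reference antibiotic; read after six days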
* hit, by the source's call; ? = inconclusive; / = no result given.

A first look, 18 compounds:
Molecule	ugtP null kill	Mtb hypoxia rep	Mtb hypoxia rep growth	PrP 5UTR inh	Bead autofluor	RN4220 kill	BJeLR viability
Cc1cccc(N(CC(=O)NC(C)C)C(=O)CCC(=O)Nc2ccccn2)c1	3.8	15.2	8.5	-16.4	3631	6.9	-5.5
COc1ccc(OC)c(Nc2nc(N)nc(CSc3nnc(N)s3)n2)c1	-1.8	-1.4	5.5	/	11086	1.6	-22.3
CCOc1ccc(-c2nnc(SCc3nc4ccccc4[nH]3)n2N)cc1	-2.3	-3.2	3.2	-11.7	22829*	3.6	1.3
CCOC(=O)c1ccc(N2C(=O)C3CC=C(C)CC3C2=O)cc1 (stereo not given)	10.0	5.9	5.3	-17.1	/	1.5	0.2
Cc1cc(C(=O)NC2Cc3ccccc3C2)c(C)o1	1.1	7.3	5.0	-18.3	4226	0.4	0.1
COC(=O)N/N=C/c1cc(N=Nc2ccccc2)ccc1O	/	/	/	-23.5	3220	/	-7.2
Cc1ccc2nc(NNC(=O)c3ccc4c(c3)OCCO4)sc2c1	1.9	4.0	4.3	-15.8	4346	0.8	-11.5
COc1ccc(-c2ccnc(SCC(=O)Nc3ccccn3)n2)cc1	-4.5	/	/	-9.7	2650	2.0	-4.7
CC1(C)C(=O)Nc2ccccc2N1C(=O)COC(=O)C1CCCCC1	2.5	9.1	8.9	-1.8	2731	7.4	-4.0
CC(=O)N1CCN(C(=O)c2cc3c(s2)CCC(C)C3)CC1 (stereo not given)	5.1	2.7	5.4	-3.7	6423	2.2	/
CNC(=S)N/N=C/c1c(Cl)cccc1Cl	/	/	/	-19.5	2262	/	4.7
CC(C)=CCc1cc(-c2oc3cc(O)cc(O)c3c(=O)c2O)ccc1O	-8.3	/	/	-8.4	4124	3.5	-14.1
Fc1ccc(C2=NOC(c3nnc(-c4ccccc4)o3)C2)cc1 (stereo not given)	3.1	6.9	6.8	-29.2	3532	6.3	-7.4
N=c1ccn2c(n1)OC1C(CO)C(O)OC12 (stereo not given)	-10.7	0.2	-1.1	/	/	1.9	/
O=C(C[n+]1ccccc1)NN=Cc1cc(Br)cc(Br)c1O	24.5	21.2	12.8	/	/	6.8	/
CCOC(=O)NN=C(C)c1ccccc1OC(F)F	13.7	/	/	/	/	5.0	/
COc1ccc2oc(=O)c(-c3nc(C)cs3)cc2c1	-3.0	5.9	3.2	-61.8	20394*	3.2	/
CC(=O)c1ccc(Nc2cc(C)nc3nc(C)nn23)cc1	2.1	/	/	-36.5	6004	-2.5	-7.2

Main list, from the first entry:
Molecule	ugtP null kill	Mtb hypoxia rep	Mtb hypoxia rep growth	PrP 5UTR inh	Bead autofluor	RN4220 kill	BJeLR viability
Cc1cccc(N(CC(=O)NC(C)C)C(=O)CCC(=O)Nc2ccccn2)c1	3.8	15.2	8.5	-16.4	3631	6.9	-5.5
COc1ccc(OC)c(Nc2nc(N)nc(CSc3nnc(N)s3)n2)c1	-1.8	-1.4	5.5	/	11086	1.6	-22.3
CCOc1ccc(-c2nnc(SCc3nc4ccccc4[nH]3)n2N)cc1	-2.3	-3.2	3.2	-11.7	22829*	3.6	1.3
CCOC(=O)c1ccc(N2C(=O)C3CC=C(C)CC3C2=O)cc1 (stereo not given)	10.0	5.9	5.3	-17.1	/	1.5	0.2
Cc1cc(C(=O)NC2Cc3ccccc3C2)c(C)o1	1.1	7.3	5.0	-18.3	4226	0.4	0.1
COC(=O)N/N=C/c1cc(N=Nc2ccccc2)ccc1O	/	/	/	-23.5	3220	/	-7.2
Cc1ccc2nc(NNC(=O)c3ccc4c(c3)OCCO4)sc2c1	1.9	4.0	4.3	-15.8	4346	0.8	-11.5
COc1ccc(-c2ccnc(SCC(=O)Nc3ccccn3)n2)cc1	-4.5	/	/	-9.7	2650	2.0	-4.7
CC1(C)C(=O)Nc2ccccc2N1C(=O)COC(=O)C1CCCCC1	2.5	9.1	8.9	-1.8	2731	7.4	-4.0
CC(=O)N1CCN(C(=O)c2cc3c(s2)CCC(C)C3)CC1 (stereo not given)	5.1	2.7	5.4	-3.7	6423	2.2	/
CNC(=S)N/N=C/c1c(Cl)cccc1Cl	/	/	/	-19.5	2262	/	4.7
CC(C)=CCc1cc(-c2oc3cc(O)cc(O)c3c(=O)c2O)ccc1O	-8.3	/	/	-8.4	4124	3.5	-14.1
Fc1ccc(C2=NOC(c3nnc(-c4ccccc4)o3)C2)cc1 (stereo not given)	3.1	6.9	6.8	-29.2	3532	6.3	-7.4
N=c1ccn2c(n1)OC1C(CO)C(O)OC12 (stereo not given)	-10.7	0.2	-1.1	/	/	1.9	/
O=C(C[n+]1ccccc1)NN=Cc1cc(Br)cc(Br)c1O	24.5	21.2	12.8	/	/	6.8	/
CCOC(=O)NN=C(C)c1ccccc1OC(F)F	13.7	/	/	/	/	5.0	/
COc1ccc2oc(=O)c(-c3nc(C)cs3)cc2c1	-3.0	5.9	3.2	-61.8	20394*	3.2	/
CC(=O)c1ccc(Nc2cc(C)nc3nc(C)nn23)cc1	2.1	/	/	-36.5	6004	-2.5	-7.2
CC(=NCC1CCCO1)c1c(O)n(C2CCCCC2)c(=O)[nH]c1=O (stereo not given)	-0.9	12.4	-1.2	-12.4	5954	2.4	-3.4
CCc1cccc(CC)c1NC(=S)N(CCN(C)C)C(C)c1cccnc1 (stereo not given)	2.1	1.5	11.7	-22.2	3301	4.1	-5.9
CCN(CC(=O)NC1CCS(=O)(=O)C1)S(=O)(=O)c1ccc2ccccc2c1 (stereo not given)	1.7	10.7	8.5	-4.1	2021	2.7	-6.3
CCN(CC)S(=O)(=O)c1ccc(OC)c(NC(=O)c2cc(C)on2)c1	3.9	12.5	-4.0	-3.9	3406	1.3	-29.5
CCOC(=O)N1CCN(S(=O)(=O)c2cc3c(cc2C)NC(=O)CO3)CC1	2.4	7.7	7.8	-9.1	9176	3.8	0.4
COC(=O)C1=C(c2ccc(OC)c(OC)c2)CC2CCC1N2C(=O)NC1CCCCC1 (stereo not given)	-2.7	3.6	3.6	/	/	5.7	/
CCN=C1S/C(=C\c2cc(Br)c(O)c(OC)c2)C(=O)N1CC	8.6	8.0	12.4	-3.5	3509	4.3	3.8
COC(=O)c1cccc(N(CC(=O)NC2CCCC2)C(=O)CNC(=O)c2cccs2)c1	2.9	12.0	2.6	-14.9	5335	2.9	-0.1
CC(C)Oc1ccc(CNC(=O)C2CCCN(S(=O)(=O)N3CCOCC3)C2)cc1 (stereo not given)	-6.6	-12.4	2.0	1.5	5386	-1.3	1.5
CN(Cc1ccccc1)C(=S)NC(=O)C1CCCCC1	1.2	5.0	11.5	-22.0	2720	2.2	-10.2
Cc1csc(NC(=O)Cc2ccc(F)cc2)n1	11.2	6.1	5.6	-31.3	3288	1.6	2.3
CSc1ccc(/C=N/n2nnnc2N)cc1	/	/	/	-21.1	22907*	/	-1.8
Cc1cccc(OCC(=O)NCC(=O)N/N=C/c2cc(Br)cc(Br)c2O)c1	/	/	/	0.1	5425	/	5.3
O=C(N/N=C/c1ccc([N+](=O)[O-])o1)c1cc(-c2ccncc2)nc2ccccc12	/	/	/	-30.3	8315	/	21.3
CCc1nnc(NS(=O)(=O)c2ccc(NS(=O)(=O)c3ccccc3[N+](=O)[O-])cc2)s1	1.1	0.9	2.7	-23.2	3608	-1.5	11.7
CCOC(=O)[C@@H]1[C@H]2COc3cc(OC)ccc3[C@@H]2N2C(=O)N(c3cccc(C)c3)C(=O)[C@@]12C	/	/	/	-13.4	3905	/	2.4
COc1cc(OC)cc(-c2c(C#Cc3ccsc3)c3cc(-c4cnc(OC)nc4)ccc3n2C)c1	-11.7	-5.9	8.5	-6.4	3704	-10.6	/
CCCCCCN1CCN(c2ccccc2Cl)CC1	8.3	3.3	5.3	-24.3	2012	7.5	8.7
O=C(NCCn1cccn1)C1CCC(=O)N(CCc2cccc(F)c2)C1 (stereo not given)	2.6	5.7	-1.5	-3.7	?	-1.0	7.2
COCCNC(=O)c1cccc(C)c1[N+](=O)[O-]	3.5	8.9	1.4	-7.4	2175	4.1	4.1
COc1ccc(C(=O)N/N=C(\CCC(=O)O)c2ccc(C(C)(C)C)cc2)cc1OC	/	/	/	-8.4	4440	/	1.3
COc1cccc(CNC(=O)c2nnn(CC(=O)Nc3cc(C)ccc3C)c2N)c1	0.2	2.1	2.9	-4.1	4213	6.0	7.4
COc1cccc(-c2cc(C(=O)Nc3nc4ccccc4s3)c3ccccc3n2)c1	-24.6	-9.2	9.8	0.0	12537	-14.2	0.8
CC(C)(C)NC(=O)CSc1nc2[nH]ncc2c(=O)[nH]1	5.4	5.1	2.0	-1.6	2444	0.9	-9.6
O=C(c1ccccc1)n1ccn(-c2ccccc2)c1=S	5.4	8.1	14.6	-16.4	19357*	8.2	-12.3
Cn1c(O)c(C=NCCOc2ccc(Cl)cc2)c(=O)n(C)c1=O	7.6	/	/	-15.3	3088	3.0	11.1
CCc1noc(C)c1C(=O)N1CCCC(C(=O)c2cc(F)ccc2F)C1 (stereo not given)	2.5	16.7	6.4	8.1	1953	4.4	-2.9
Brc1ccc(CSc2nnc(-c3cccnc3)o2)cc1	2.1	/	/	-0.5	2532	10.5	0.7
CC(Cn1nc([N+](=O)[O-])cc1C)=NNC(=O)c1ccc(C(C)(C)C)cc1	-4.6	2.4	4.3	/	/	3.4	/
CN(C(=O)COC(=O)CNC(=O)C1CCCCC1)c1ccccc1	7.2	3.4	-0.3	-21.7	6348	5.0	/
CC(=O)N1N=C(c2ccc(C(C)(C)C)cc2)OC1(C)C	9.1	-3.9	2.4	-27.2	9764	8.4	-5.0
O=C(CSc1ccc2nnc(-c3cccnc3)n2n1)NCc1ccco1	-6.6	7.1	1.4	-19.9	5343	1.6	0.9
CC1=C(C(=O)OC2CCCCC2)C(c2ccc(F)cc2)NC(=O)N1 (stereo not given)	2.6	-2.1	0.4	/	3897	0.4	6.5
O=C(NC1CC2CCC(C1)N2Cc1ccccc1)c1cccc(F)c1 (stereo not given)	11.6	1.2	-7.4	-28.2	3490	2.9	0.3
Fc1ccc(C(c2nnnn2Cc2ccccc2)N2CCSCC2)cc1 (stereo not given)	-3.7	13.6	4.2	-23.2	10302	4.8	-5.9
CC(C(=O)N1CCN(Cc2ccccc2)CC1)n1ncn2cccc2c1=O (stereo not given)	0.2	2.2	5.9	-14.1	5461	2.9	-2.8
O=C(Nc1ccccc1O)c1csc2c1CCCC2	7.6	2.5	9.8	-105.5	3158	-15.8	11.0
O=C(NCc1ccc2c(c1)OCO2)c1ccc(-c2ccc(Cl)cc2)o1	56.6	2.4	7.9	-14.2	10797	-15.8	4.4
CCOc1ccc(NC(=O)NC2(C(=O)NCc3ccco3)CCCCC2)cc1	5.0	17.0	4.8	-29.5	3781	0.4	-8.0
Cc1cc(C)cc(OCc2nnc(SCC(=O)OC3CCCCC3)o2)c1	3.9	6.6	9.5	-27.8	19031*	3.1	6.7
O=C(/C=C\Nc1ccccc1Br)c1ccc2c(c1)OCO2	6.9	2.3	5.0	23.9	6038	-4.4	2.4
CC#CC(=O)N1CCC(CCC(=O)N(C)Cc2ccccc2)CC1	5.3	-11.9	-17.9	-23.7	3769	0.2	-8.4
O=C(Nc1nc(-c2cccs2)cs1)c1ccc(Cl)cc1	-7.7	-66.2	0.8	-29.3	3774	-5.3	-1.0

Pulled by structure from above (2):
Molecule	ugtP null kill	Mtb hypoxia rep	Mtb hypoxia rep growth	PrP 5UTR inh	Bead autofluor	RN4220 kill	BJeLR viability
CC(Cn1nc([N+](=O)[O-])cc1C)=NNC(=O)c1ccc(C(C)(C)C)cc1	-4.6	2.4	4.3	/	/	3.4	/
O=C(NCCn1cccn1)C1CCC(=O)N(CCc2cccc(F)c2)C1 (stereo not given)	2.6	5.7	-1.5	-3.7	?	-1.0	7.2
